# Assay outcomes: PubChem, several laboratories
# PKD1 inh – blocks activity of human protein kinase D1; Q15139; PKD1 kinase fluorescence polarization assay; inhibition, %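 (about 10 µM by stock and volumes)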; hit rate 0.056% among 200,000;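 active means inhibition of 50% or more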;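 further: controls were vehicle for no effect and a reference inhibitor for full effect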
# Target sequence (Q15139 whole entry, looked up): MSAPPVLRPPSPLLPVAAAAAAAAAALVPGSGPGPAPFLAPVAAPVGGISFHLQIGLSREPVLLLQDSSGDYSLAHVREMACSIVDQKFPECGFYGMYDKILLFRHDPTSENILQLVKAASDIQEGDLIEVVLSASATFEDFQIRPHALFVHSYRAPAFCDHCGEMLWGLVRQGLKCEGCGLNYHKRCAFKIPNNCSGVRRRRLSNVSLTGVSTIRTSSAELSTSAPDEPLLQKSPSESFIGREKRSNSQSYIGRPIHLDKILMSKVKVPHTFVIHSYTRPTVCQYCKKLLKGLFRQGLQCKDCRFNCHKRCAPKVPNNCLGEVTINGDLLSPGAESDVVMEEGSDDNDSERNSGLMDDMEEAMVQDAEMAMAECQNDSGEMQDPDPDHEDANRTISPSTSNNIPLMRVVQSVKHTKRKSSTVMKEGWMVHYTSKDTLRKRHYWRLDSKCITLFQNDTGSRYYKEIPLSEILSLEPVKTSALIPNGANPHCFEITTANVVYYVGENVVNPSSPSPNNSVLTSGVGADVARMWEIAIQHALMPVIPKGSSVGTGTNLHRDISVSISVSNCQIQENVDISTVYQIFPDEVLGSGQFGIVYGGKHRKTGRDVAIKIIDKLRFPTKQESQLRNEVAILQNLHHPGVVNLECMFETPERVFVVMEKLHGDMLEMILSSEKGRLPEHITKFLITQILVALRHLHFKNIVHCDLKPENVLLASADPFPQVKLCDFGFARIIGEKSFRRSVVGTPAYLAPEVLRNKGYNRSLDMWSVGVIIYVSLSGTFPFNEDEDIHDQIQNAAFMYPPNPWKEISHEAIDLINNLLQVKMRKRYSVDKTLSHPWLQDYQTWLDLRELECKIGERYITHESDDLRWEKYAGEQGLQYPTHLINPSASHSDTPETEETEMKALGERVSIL
# Insulin prom inh – TRM-6 insulin promoter activity inhibition; AID 1273; hit rate 0.9% among 130,000; inhibition, % at 2 µM; TRM-6 cells (human fetal islet line), insulin promoter-eGFP reporter, imaging; reporter expression induced with tamoxifen;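 active means inhibition above the mean plus 3 SD, with well images judged a real hit on visual review, cut at about 60% in these data, passing the limit was not always enough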
# HSV augment – HSV replication enhancement; maximum fold increase; HSV replication augmentation in cells, fold increase; hit rate 0.005% among 220,000;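 active means peak rise of 1.5-fold or more in the series; tested in PC3 cells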;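 further: first round at 10 µM; read as green reporter fluorescence; hits show the peak of a series up to 25 µM; 1 = signal of infected wells without compound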
# RGS16-Gao – RGS16-Galphao interaction regulator (human) | O15492+P09471 | bead-based flow cytometry RGS16-Galphao binding, fluorescence; actives lie on both sides | binding response (% of control), % at 10 µM | hit rate 0.38% among 220,000 | AID 1441;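 active means below 25% or above 175%, edge rows of some plates excepted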;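 further: Galphao activated by GDP with aluminum fluoride before binding; 100% = wells without compound and 0% = beads without RGS; some results beyond the cut were filed as inactive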
# GALR2 agonist – GALR2 (human) receptor agonism. O43603. GALR2-expressing cells, agonist activation read-out. activation, %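 (tested at 5 µM)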. hit rate 0.48% among 140,000. AID 803;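 active means above mean plus 3 SD of all compounds, about 5% in these data, not always enough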;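 further: 0% = vehicle buffer wells and 100% = reference agonist at full effect; tested in CHO reporter cells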
# Insulin prom inh cell count – further read-out of Insulin prom inh, marked with its call; normalized cell count, %; measured here: cell count, toxicity; reference of the scale not given here;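 cells exposed to compound for 48 h; stained nuclei by imaging scaled within each plate; lower means fewer cells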
# HSV augment primary fold – second read-out of HSV augment, no call of its own (marks repeat the call); fold increase; compound at 10 µM; measured here: primary screen fold increase 10 uM; tested in PC3 cells;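 GFP signal in the first replicate; 1 = infected wells without compound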
# Active calls of the source: *; i = inactive; . = no result given. Outcome played no part in choosing rows. About 1.3% of those tested had a hit in this group.
# Codes: A = PKD1 inh; B = Insulin prom inh; C = Insulin prom inh cell count; D = HSV augment; E = HSV augment primary fold; F = RGS16-Gao; G = GALR2 agonist
1	Cc1nc(N2CCC(C(N)=O)CC2)c2nnn(Cc3ccccc3)c2n1
  A: 14.4	B: .	C: .	D: i	E: 1.05	F: 100.5	G: -1.0

2	O=C(O)CCNS(=O)(=O)c1ccccc1C(F)(F)F
  A: 1.4	B: .	C: .	D: i	E: 0.85	F: 99.7	G: .

3	O=C(Nc1ccc(Oc2ccc(NC(=O)C3CCCO3)cc2)cc1)C1CCCO1 (stereo not drawn)
  A: -17.4	B: -7.7	C: 60.7	D: i	E: 0.87	F: 96.1	G: -0.8

4	Cc1onc(-c2c(Cl)cccc2Cl)c1C(=O)N1C=CC(C(F)(F)F)=NCC1
  A: -9.7	B: .	C: .	D: i	E: 0.87	F: 99.3	G: -4.2

5	O=C(NC1CC1)c1ccc(S(=O)(=O)NC2CCCCCC2)cc1
  A: 0.9	B: .	C: .	D: i	E: 0.89	F: 101.5	G: -0.8

6	O=C(c1ccc2c(c1)OCO2)N1CCC(Cc2ccccc2)CC1
  A: .	B: .	C: .	D: i	E: 0.98	F: 102.2	G: .

7	Cc1cccc(OCc2nnc(SCC(=O)OC3CCCCC3)o2)c1
  A: -5.8	B: .	C: .	D: i	E: 1.07	F: 100.1	G: -2.1

8	O=C(CSc1nc2[nH]ncc2c(=O)n1-c1ccccc1)c1ccc2c(c1)OCCO2
  A: 0.1	B: -43.8	C: 90.5	D: i	E: 1.22	F: 102.6	G: -1.8

9	O=C(N/N=C/c1ccc(-c2cccc([N+](=O)[O-])c2)o1)c1ccc([N+](=O)[O-])cc1
  A: -7.4	B: .	C: .	D: i	E: 0.95	F: 100.7	G: .

10	CC(C)(C)C(=O)NC(NC(=O)C(C)(C)C)c1ccc([N+](=O)[O-])cc1
  A: -5.7	B: -36.7	C: 102.7	D: i	E: 0.97	F: 108.9	G: -0.2

# Only HSV augment (two entries from above):
cpd | SMILES | HSV augment
8 | O=C(CSc1nc2[nH]ncc2c(=O)n1-c1ccccc1)c1ccc2c(c1)OCCO2 | i
9 | O=C(N/N=C/c1ccc(-c2cccc([N+](=O)[O-])c2)o1)c1ccc([N+](=O)[O-])cc1 | i

# Next section:
# Codes: A = PKD1 inh; B = Insulin prom inh; C = Insulin prom inh cell count; D = HSV augment; E = HSV augment primary fold; F = RGS16-Gao; G = GALR2 agonist
11	CC(C)(O)C#Cc1ccc(CN2CCN(Cc3ccccc3)C(CCO)C2)s1 (stereo not drawn)
  A: -3.5	B: .	C: .	D: i	E: 0.93	F: 103.7	G: .

12	CCn1c(Nc2ccccc2Cl)nc2ccccc21
  A: 6.8	B: .	C: .	D: i	E: 0.91	F: 98.5	G: .

13	C=C1CCN([C@@H](C)C(=O)NCCCCCC)S(=O)(=O)c2ccccc21
  A: .	B: .	C: .	D: i	E: 1.34	F: 89.2	G: .

14	O=C(COC(=O)c1ccc(Br)o1)NCC1CCCO1 (stereo not drawn)
  A: -5.8	B: 0.0	C: 112.4	D: i	E: 1.34	F: 102.7	G: -3.2

15	N#Cc1cc2c(=O)n3ccccc3nc2n(Cc2ccco2)c1=NC(=O)c1ccco1
  A: -2.1	B: 9.8	C: 131.5	D: i	E: 0.96	F: 104.0	G: 1.9

16	Cc1sc2nc(CN3CCOCC3)[nH]c(=S)c2c1C
  A: -4.5	B: 58.3	C: 56.6	D: i	E: 0.94	F: 118.6	G: .

17	O=C(Nc1nccs1)C(=O)c1c[nH]c2ccccc12
  A: -1.1	B: 30.0	C: 135.1	D: i	E: 0.943	F: 110.6	G: 0.1

18	Cc1oc(C(C)(C)C)cc1C(=O)N1CCN(c2ncccc2C(F)(F)F)CC1
  A: .	B: .	C: .	D: i	E: 0.96	F: 130.7	G: .

19	Cc1c(C(=O)O)oc2ccc(S(=O)(=O)N3CC(C)CC(C)C3)cc12 (stereo not drawn)
  A: -6.8	B: .	C: .	D: i	E: 0.93	F: 101.3	G: -0.5

20	COc1ccc(NC(=O)c2ccccc2N(Cc2ccccc2)S(C)(=O)=O)cc1
  A: -0.2	B: .	C: .	D: i	E: 0.83	F: 101.0	G: .

21	COCCN1CCCC(CNCc2cn(C)nc2-c2ccc(Oc3ccccc3)cc2)C1 (stereo not drawn)
  A: -5.0	B: .	C: .	D: i	E: 0.89	F: 109.7	G: .

# Entries listed so far that contain a halogen, in the order listed:
# Codes: A = PKD1 inh; B = Insulin prom inh; C = Insulin prom inh cell count; D = HSV augment; E = HSV augment primary fold; F = RGS16-Gao; G = GALR2 agonist
2	O=C(O)CCNS(=O)(=O)c1ccccc1C(F)(F)F
  A: 1.4	B: .	C: .	D: i	E: 0.85	F: 99.7	G: .

4	Cc1onc(-c2c(Cl)cccc2Cl)c1C(=O)N1C=CC(C(F)(F)F)=NCC1
  A: -9.7	B: .	C: .	D: i	E: 0.87	F: 99.3	G: -4.2

12	CCn1c(Nc2ccccc2Cl)nc2ccccc21
  A: 6.8	B: .	C: .	D: i	E: 0.91	F: 98.5	G: .

14	O=C(COC(=O)c1ccc(Br)o1)NCC1CCCO1 (stereo not drawn)
  A: -5.8	B: 0.0	C: 112.4	D: i	E: 1.34	F: 102.7	G: -3.2

18	Cc1oc(C(C)(C)C)cc1C(=O)N1CCN(c2ncccc2C(F)(F)F)CC1
  A: .	B: .	C: .	D: i	E: 0.96	F: 130.7	G: .
